From PubChem BioAssay
CSC inhib = blocks cancer stem cells; cancer stem cell-like cells viability, luminescence; inhibition, % at 7.5 µM; hit rate 1.1% among 300,000;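 active = mean at 75% or more and at least half the replicates too; tested in HMLE shEcad cells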;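 also: 0% = median of negative and 100% = median of positive control wells; the first replicate is given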
PABP FP inh = PABP-poly(A) binding inhibition; P11940; PABP-poly(A) RNA binding, fluorescence polarization; inhibition, % at 35 µM; hit rate 1% among 290,000;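 active = 50% or more with normal probe brightness, or confirmed in later tests; about a fifth of its hits are not listed in these tables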;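 also: calls also rest on retests at 20 µM and on dose response follow-up; controls were probe without protein and protein plus probe with vehicle; some compounds called inactive have numbers as strong as hits; many hits fall short of the cut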
Target sequence (P11940 whole entry, looked up): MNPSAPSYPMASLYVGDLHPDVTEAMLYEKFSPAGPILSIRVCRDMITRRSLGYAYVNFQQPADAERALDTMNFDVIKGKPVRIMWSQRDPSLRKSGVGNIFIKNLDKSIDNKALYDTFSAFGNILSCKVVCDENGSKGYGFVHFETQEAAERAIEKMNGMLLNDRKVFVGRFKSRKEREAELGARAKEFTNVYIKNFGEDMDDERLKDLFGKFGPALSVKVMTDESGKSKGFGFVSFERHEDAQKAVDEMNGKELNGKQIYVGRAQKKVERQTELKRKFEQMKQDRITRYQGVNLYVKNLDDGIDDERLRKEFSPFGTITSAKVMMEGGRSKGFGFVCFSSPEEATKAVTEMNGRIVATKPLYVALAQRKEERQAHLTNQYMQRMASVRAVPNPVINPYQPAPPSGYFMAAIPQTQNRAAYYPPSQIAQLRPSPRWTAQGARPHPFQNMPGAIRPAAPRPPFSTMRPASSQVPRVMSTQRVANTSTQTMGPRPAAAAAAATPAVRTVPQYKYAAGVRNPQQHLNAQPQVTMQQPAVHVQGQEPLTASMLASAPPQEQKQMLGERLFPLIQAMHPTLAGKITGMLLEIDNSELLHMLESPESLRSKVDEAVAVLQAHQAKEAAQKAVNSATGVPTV
Yeast UUG start = alters start codon recognition fidelity in yeast. AID 602363. hit rate 0.13% among 350,000. activity score, % at 18.7 µM. S. cerevisiae UUG-firefly luciferase reporter, luminescence/redox ratio;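 active = replicate mean at a twofold rise or more, about +100% in these data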;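 also: firefly luciferase made from a UUG start codon reports start codon fidelity; reporter light over untreated wells divided by growth signal over untreated wells; some hits fall short of that in this replicate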
Rce1 inhib = blocks yeast Ras-converting enzyme; Q03530; yeast membranes, quenched prenylated peptide cleavage fluorescence; calls only; hit rate 0.27% among 290,000; AID 2563;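 active = fall in fluorescence gain of 50% or more versus controls, with final raw signal at or below 3038400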;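 also: plate controls were neutral control wells for no effect and wells lacking membranes for full effect; tested at 10 µM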
Target sequence (Q03530 whole entry, looked up): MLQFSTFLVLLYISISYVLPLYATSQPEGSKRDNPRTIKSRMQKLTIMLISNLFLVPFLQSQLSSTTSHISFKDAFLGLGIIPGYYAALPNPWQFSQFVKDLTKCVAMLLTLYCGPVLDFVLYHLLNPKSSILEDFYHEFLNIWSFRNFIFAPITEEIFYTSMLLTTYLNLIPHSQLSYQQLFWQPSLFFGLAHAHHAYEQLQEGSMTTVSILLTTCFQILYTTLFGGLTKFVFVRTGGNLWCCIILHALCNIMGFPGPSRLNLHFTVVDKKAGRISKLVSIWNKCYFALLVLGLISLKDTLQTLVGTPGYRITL
eIF4H inh = inhibitors of RNA binding by human eIF4H. eIF4H fluorescence polarization binding assay. inhibition, % at 35 µM. hit rate 0.94% among 290,000. AID 2012;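 active = 50% or more with normal probe brightness, or confirmed in later tests; about a fifth of its hits are not listed in these tables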;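 also: calls also rest on retests at 20 µM and on dose response follow-up; 0% = protein and probe with vehicle and 100% = probe without protein; strong numbers were not always called active; many hits fall short of the cut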
MT1-MMP act inh = blocks activation of human MT1-MMP. P50281. HT1080 RFP-PRO-GFP cells, GFP/RFP ratio fluorescence, overnight; percent of plate control window, DMSO zero. GFP/RFP ratio change, % at 20 µM. hit rate 0.061% among 360,000;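 active = GFP/RFP ratio change of at least 30% with cell ATP level not reduced by more than half and red fluorescence within 50% of control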; also: strong numbers were not always called active
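Assay system: HT1080 RFP-PRO-GFP cells. Benchmarks: DMSO vehicle wells and RFP-L50D-GFP reporter cell wells. Times: overnight cell settling, then overnight compound exposure, 37 °C, 5% CO2. Compound: 20 µM single dose, 1% DMSO. Read-out basis: GFP/RFP fluorescence ratio.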
HIV Env fusion = HIV envelope-mediated fusion inhibition. HeLa-JRFL Env/CEM21 cell fusion, luciferase. inhibition, % at 12.3 µM. hit rate 1.1% among 360,000. AID 651610;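 active = mean replicate inhibition score of at least 50 and every replicate individually at or above 50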;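 also: 0% = plate neutral controls and 100% = maraviroc near 300 nM; one replicate is shown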
eIF4H inh retest = second read-out of eIF4H inh, no call of its own (marks repeat the call); inhibition, %; compound at 20 µM; confirmation average;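 mean of two retest wells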
PABP FP inh retest = recorded beside PABP FP inh, whose call it bears; inhibition, %; compound at 20 µM; confirmation repeats;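 mean of two retest wells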
MT1-MMP act inh RFP = further read-out of MT1-MMP act inh, marked with its call; RFP signal change, %; measured here: RFP expression control read;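 0 = vehicle wells; hits needed this value within 50% of zero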
Starred values were filed as active, the others as inactive.

`COC(=O)C1C(O)C(C)C(O)C(C)(O)/C=C\C=C(/C)C(=O)Nc2c(C)c(OC(C)=O)c3c(c2O)C(=O)C(C)=C2OCOC(=C23)/C(C)=C/C(C)(O)C(O)C(C)C1O` (configuration not stated) gave CSC inhib -1, PABP FP inh 42, Yeast UUG start -17, Rce1 inhib inactive, eIF4H inh 67, MT1-MMP act inh -6, HIV Env fusion 20, eIF4H inh retest 16, PABP FP inh retest 34 and MT1-MMP act inh RFP 2.
Screening O=c1[nH]cccc1-c1nc2ccccc2n1Cc1cccc(F)c1 returned CSC inhib -14, PABP FP inh 4, Yeast UUG start -10, Rce1 inhib inactive, eIF4H inh -3, MT1-MMP act inh 2, HIV Env fusion 3 and MT1-MMP act inh RFP -1.
`CCOc1ccc(N(C(=O)c2snc(C(N)=O)c2N)C(C(=O)NCC2CCCO2)c2c[nH]c3ccccc23)cc1` (configuration not stated) gave CSC inhib 1, PABP FP inh 9, Yeast UUG start 2, eIF4H inh -1, MT1-MMP act inh -12, HIV Env fusion 43 and MT1-MMP act inh RFP -13.
Screening CCCc1cc(C(=O)N2CCN(c3ccc(C(F)(F)F)cn3)CC2)sc1C returned CSC inhib 49, PABP FP inh 10, Yeast UUG start -15, Rce1 inhib inactive, eIF4H inh -1, MT1-MMP act inh -4, HIV Env fusion 33 and MT1-MMP act inh RFP -8.
Screening COc1ccc([C@@H]2Sc3cc(OC)ccc3N(CCN(C(C)C)C(C)C)C(=O)[C@H]2OC(C)=O)cc1 returned CSC inhib -4, PABP FP inh 4, Yeast UUG start 1, eIF4H inh -10, MT1-MMP act inh -16, HIV Env fusion 18 and MT1-MMP act inh RFP -6.
`O=C(CCN1CCN(c2ccccc2)CC1)NNC(=O)c1ccccc1` gave Yeast UUG start -8, MT1-MMP act inh 2, HIV Env fusion 9 and MT1-MMP act inh RFP 7.
`CC(C)n1nnnc1SCC(=O)NCCc1ccccc1` gave CSC inhib -7, PABP FP inh 0, Yeast UUG start -14, Rce1 inhib inactive, eIF4H inh 11, MT1-MMP act inh 4, HIV Env fusion 15 and MT1-MMP act inh RFP -4.
`CCN(C1CCCCC1)S(=O)(=O)c1ccc(S(=O)(=O)NCCc2ccncc2)cc1` gave CSC inhib -3, PABP FP inh -6, Yeast UUG start -14, Rce1 inhib inactive, eIF4H inh 4, MT1-MMP act inh -7, HIV Env fusion 34 and MT1-MMP act inh RFP -13.
For O=C1CSC(c2ccc3c(c2)OCO3)N1c1ccc(Oc2ccccc2)cc1 (configuration not stated) the results were CSC inhib 2, PABP FP inh 2, Rce1 inhib inactive, eIF4H inh 3, MT1-MMP act inh -5, HIV Env fusion -63 and MT1-MMP act inh RFP -8.
CS(=O)(=O)N(CCc1ccccc1)CC(=O)N1CCCCCC1 was read as Yeast UUG start 10, MT1-MMP act inh -3, HIV Env fusion -63 and MT1-MMP act inh RFP 2.
Screening O=C(COC(=O)Cc1ccc(Cl)cc1)NC1CCCC1 returned CSC inhib 3, Yeast UUG start -15, MT1-MMP act inh -2, HIV Env fusion 5 and MT1-MMP act inh RFP 1.
Screening O=C(NC(=S)N(CCc1ccccc1)CCc1ccccc1)c1ccco1 returned CSC inhib 26, PABP FP inh 9, Yeast UUG start -24, Rce1 inhib inactive, eIF4H inh 12, MT1-MMP act inh 3, HIV Env fusion 14 and MT1-MMP act inh RFP -11.
Screening CC(=O)Oc1ccccc1Cn1c(C)c(C(=O)NCc2ccc(F)cc2)sc1=O returned Yeast UUG start -1, MT1-MMP act inh 6, HIV Env fusion -3 and MT1-MMP act inh RFP -3.
Screening Cc1ccc(NC(=O)C2CCN(C(=O)NC3CCCCC3)CC2)cc1Cl returned CSC inhib -6, PABP FP inh 6, Yeast UUG start 0, Rce1 inhib inactive, eIF4H inh -10, MT1-MMP act inh -3, HIV Env fusion -16 and MT1-MMP act inh RFP -5.
CC(=O)Nc1ccc(S(=O)(=O)NCc2ccccn2)cc1 was read as CSC inhib -5, PABP FP inh 9, Rce1 inhib inactive, eIF4H inh 1, MT1-MMP act inh -4 and MT1-MMP act inh RFP -2.
`CCN(CC)c1cccc(OCC(=O)N(C)CCC#N)c1` gave CSC inhib 16, PABP FP inh 57*, Yeast UUG start -6, Rce1 inhib inactive, eIF4H inh 60*, MT1-MMP act inh 39, eIF4H inh retest 57*, PABP FP inh retest 68* and MT1-MMP act inh RFP 82.
Screening CN1CCN(S(=O)(=O)c2ccc(Nc3ccc(F)cc3)c([N+](=O)[O-])c2)CC1 returned CSC inhib 61, Yeast UUG start -15, Rce1 inhib inactive, MT1-MMP act inh -1 and MT1-MMP act inh RFP -7.
For C=CCN(c1ccccc1Cl)S(=O)(=O)c1cc(C(=O)N2CCCC2)ccc1Cl the results were CSC inhib -1, PABP FP inh 0, Yeast UUG start 22, Rce1 inhib inactive, eIF4H inh -7, MT1-MMP act inh 1, HIV Env fusion 15 and MT1-MMP act inh RFP -4.
For O=C(COC(=O)c1ccc(O)cc1)Nc1cc(C(F)(F)F)ccc1Cl the results were CSC inhib -7, PABP FP inh -4, Rce1 inhib inactive, eIF4H inh -5, MT1-MMP act inh 1, HIV Env fusion 10 and MT1-MMP act inh RFP 5.
Screening COc1ccc(/C=C(\NC(=O)c2ccco2)C(=O)NCc2ccco2)cc1 returned CSC inhib -1, PABP FP inh 1, Yeast UUG start -17, Rce1 inhib inactive, eIF4H inh -2, MT1-MMP act inh 3, HIV Env fusion 3 and MT1-MMP act inh RFP 4.
For COc1cccc(NC(=O)CN(C)C(=O)CSc2nc3ccccc3s2)c1 the results were CSC inhib 12, Rce1 inhib inactive, MT1-MMP act inh -3, HIV Env fusion 13 and MT1-MMP act inh RFP 2.
CC(=O)c1cccc(CN(C)CC2CCCN(CCc3ccccc3C)C2)c1 (configuration not stated) was read as CSC inhib 12, PABP FP inh 0, Yeast UUG start -27, Rce1 inhib inactive, eIF4H inh -10, MT1-MMP act inh 4, HIV Env fusion 13 and MT1-MMP act inh RFP -1.
O=C(CN1C(=O)c2cccc([N+](=O)[O-])c2C1=O)N1CCN(c2ccc(F)cc2)CC1 was read as CSC inhib -3, PABP FP inh 0, Rce1 inhib inactive, eIF4H inh -5, MT1-MMP act inh -1, HIV Env fusion 0 and MT1-MMP act inh RFP 2.
CCOC(=O)N/N=C/c1ccc(F)cc1 was read as CSC inhib -11, PABP FP inh 0, Yeast UUG start -7, Rce1 inhib inactive, eIF4H inh -2, MT1-MMP act inh 6 and MT1-MMP act inh RFP -2.
CCCCC(=O)N1CCN(c2ccc(OC)cc2[N+](=O)[O-])CC1 was read as CSC inhib -10, PABP FP inh -2, Yeast UUG start 12, Rce1 inhib inactive, eIF4H inh 6, MT1-MMP act inh 3 and MT1-MMP act inh RFP 2.
Screening O=C(Cn1nc(C(F)(F)F)cc1C1CC1)Nc1ccccc1F returned CSC inhib -16, PABP FP inh -10, Rce1 inhib inactive, eIF4H inh 4, MT1-MMP act inh 3, HIV Env fusion -9 and MT1-MMP act inh RFP 5.
`O=C(Nc1ccc(F)cc1F)NC1CC(=O)N(Cc2ccccc2)C1` (configuration not stated) gave CSC inhib -7, PABP FP inh -8, Yeast UUG start -11, Rce1 inhib inactive, eIF4H inh -7, MT1-MMP act inh 0 and MT1-MMP act inh RFP 3.
CCOC(=O)N1CCC(NC(=O)CSCc2nc(-c3ccc(OC)c(OC)c3)oc2C)CC1 was read as CSC inhib 0, PABP FP inh 4, Yeast UUG start 2, Rce1 inhib inactive, eIF4H inh -1, MT1-MMP act inh 4, HIV Env fusion -83 and MT1-MMP act inh RFP -4.
`Cn1cc(CN2CCc3ccccc3C2)c2ccccc21` gave CSC inhib -1, PABP FP inh 32, Rce1 inhib inactive, eIF4H inh 8, MT1-MMP act inh 0 and MT1-MMP act inh RFP 8.
`O=C(c1ccc(NC2=NC3CS(=O)(=O)CC3S2)cc1)N1CCN(C(=O)c2ccco2)CC1` (configuration not stated) gave CSC inhib -3, PABP FP inh -3, Yeast UUG start -26, eIF4H inh 1, MT1-MMP act inh 3, HIV Env fusion -1 and MT1-MMP act inh RFP 3.
Screening O=C(N/N=C/c1cccnc1)c1cc2c(ccc3ccccc32)o1 returned CSC inhib 14, PABP FP inh -9, Yeast UUG start -21, Rce1 inhib inactive, eIF4H inh -13, MT1-MMP act inh 3 and MT1-MMP act inh RFP 1.
`CC(=O)NC(Cc1ccccc1)C(=O)NC1CCN(C(=O)NCc2ccccc2)CC1` (configuration not stated) gave PABP FP inh -6, Yeast UUG start -25, Rce1 inhib inactive, eIF4H inh -19, MT1-MMP act inh -2, HIV Env fusion 9 and MT1-MMP act inh RFP 0.
For O=C(c1ccc(Cl)cc1)N1CCCCC(Sc2nnc(-c3ccc4c(c3)OCO4)o2)C1=O (configuration not stated) the results were CSC inhib 8, PABP FP inh 0, Yeast UUG start -38, Rce1 inhib inactive, eIF4H inh -4, MT1-MMP act inh 0, HIV Env fusion 60* and MT1-MMP act inh RFP 2.
COc1ccc(S(=O)(=O)N2CCCC(C(=O)N3CCN(c4ccccc4)CC3)C2)cc1Cl (configuration not stated) was read as CSC inhib -4, PABP FP inh -6, Yeast UUG start 18, Rce1 inhib inactive, eIF4H inh -10, MT1-MMP act inh -2, HIV Env fusion -6 and MT1-MMP act inh RFP -16.
Screening C#CC(=O)CCC1CCCN1C(=O)OC(C)(C)C (configuration not stated) returned Yeast UUG start -4, MT1-MMP act inh -5, HIV Env fusion -12 and MT1-MMP act inh RFP -1.
`CC(C)(C)c1ccc(NC(=O)CNC2CCCc3ccccc32)cc1` (configuration not stated) gave CSC inhib 13, PABP FP inh 2, Rce1 inhib inactive, eIF4H inh 4, MT1-MMP act inh -2, HIV Env fusion 2 and MT1-MMP act inh RFP 5.
COc1cccc(-c2cc(C(F)(F)F)nc(-n3cc(Cl)cn3)n2)c1 was read as CSC inhib 3, PABP FP inh 5, Yeast UUG start -9, eIF4H inh -2, MT1-MMP act inh 0, HIV Env fusion -20 and MT1-MMP act inh RFP 0.
`CC(C)(C)c1cc(/C=N/O)cc(C(C)(C)C)c1O` gave CSC inhib -9, PABP FP inh 0, Yeast UUG start -9, Rce1 inhib inactive, eIF4H inh -1, MT1-MMP act inh -16, HIV Env fusion 11 and MT1-MMP act inh RFP -8.
Screening CCc1cc2c(=O)c(-c3nc(C)cs3)coc2cc1O returned CSC inhib 8, PABP FP inh -1, Yeast UUG start -13, Rce1 inhib inactive, eIF4H inh 27, MT1-MMP act inh -8, HIV Env fusion -200 and MT1-MMP act inh RFP -4.
For O=C(Nc1ccc(Cl)cc1)c1ccc(OCC2CCCO2)cc1 (configuration not stated) the results were CSC inhib -12, PABP FP inh -1, Rce1 inhib inactive, eIF4H inh -8, MT1-MMP act inh -5, HIV Env fusion -30 and MT1-MMP act inh RFP -19.
For CC1CC(=O)Nc2ccccc2N1C(=O)Cn1cnc2ccc(Br)cc2c1=O (configuration not stated) the results were Yeast UUG start -16, MT1-MMP act inh 4, HIV Env fusion 2 and MT1-MMP act inh RFP 3.

By substructure, the entries above with an aryl thioether with sulfur outside any ring
`CC(C)n1nnnc1SCC(=O)NCCc1ccccc1` gave CSC inhib -7, PABP FP inh 0, Yeast UUG start -14, Rce1 inhib inactive, eIF4H inh 11, MT1-MMP act inh 4, HIV Env fusion 15 and MT1-MMP act inh RFP -4.
For COc1cccc(NC(=O)CN(C)C(=O)CSc2nc3ccccc3s2)c1 the results were CSC inhib 12, Rce1 inhib inactive, MT1-MMP act inh -3, HIV Env fusion 13 and MT1-MMP act inh RFP 2.
For O=C(c1ccc(Cl)cc1)N1CCCCC(Sc2nnc(-c3ccc4c(c3)OCO4)o2)C1=O (configuration not stated) the results were CSC inhib 8, PABP FP inh 0, Yeast UUG start -38, Rce1 inhib inactive, eIF4H inh -4, MT1-MMP act inh 0, HIV Env fusion 60* and MT1-MMP act inh RFP 2.
